BmaI1 = BmaI1 acyl-homoserine lactone synthase inhibition – biochemical, fluorescence intensity, with counterscreen (AID 720554) | BmaI1 enzyme assay, fluorescence intensity; hits give high values; test concentration not given here; a few actives read low; strong numbers were not always called active | inhibition, % | 12,000 tested, 0.4% active;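 active = both replicates within 2 robust z-scores of the inhibited control and a quiet counterscreen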;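 note: 0% = uninhibited enzyme and 100% = inhibited control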
BmaI1 counterscreen = recorded beside BmaI1, whose call it bears; inhibition, %; measured here: counterscreen; design of the counterscreen not given here;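 first of two replicates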
Active calls of the source: *. Some of the compounds tested, so the mix of outcomes need not match the whole.

(1) C=CCn1c(SC(C)C(=O)NC(N)=O)nc2ccccc2c1=O (configuration not stated)
(2) CCC(c1nnc(SCC(=O)NCC(C)C)o1)N(C)C (configuration not stated)
(3) COc1cc(CN(C)Cc2cc3c(cc2O)CCC3)ccc1OC(F)F
(4) CC[C@H](C)C(=O)O[C@H]1CCC=C2C=C[C@H](C)[C@H](CC[C@@H]3C[C@@H](O)CC(=O)O3)[C@H]21
(5) COc1ccc(CNc2ncnc3ccccc23)cc1
(6) O=S(=O)(NC1Cc2ccccc2C1N1CCCC(C(F)(F)F)C1)c1ccccc1 (configuration not stated)
(7) COC(=O)[C@@H](NC(=O)c1ccc2c(c1)S(=O)(=O)c1ccccc1C2=O)C(C)C
(8) COc1ccccc1NC(=O)Cn1c(=O)c(N(C)C)c(N)n(C)c1=O
(9) COc1ccc(NC(=O)CN(C)C(=O)c2ccc3c(c2)NC(=O)CS3)cc1
(10) CN(C1CCCCC1)S(=O)(=O)c1ccccc1NC(=O)c1ccc[nH]c1=O
compound no.,1,2,3,4,5,6,7,8,9,10
BmaI1,8,0,5,12,7,4,-4,38,6,22
BmaI1 counterscreen,-3,0,10,18,6,4,1,26,4,8

(11) CCc1ccccc1NC(=O)CN(C)C(=O)Cn1cnc2ccc(Cl)cc2c1=O
(12) COc1ccc(-n2c(C)cc(-c3csc(NC(=O)CC(C)(C)C)n3)c2C)cc1
(13) CCn1c(SCC(=O)OCC(=O)N2CCc3ccccc32)nnc1-c1cccs1
(14) COc1ccc2c(CC(=O)OCC(=O)c3cc(C)n(-c4ccc5c(c4)OCO5)c3C)coc2c1
(15) COC(=O)[C@@H](Cc1c[nH]c2ccccc12)NC(=O)c1ccc2c(c1)OCO2
(16) CN(CC(=O)Nc1ccc(Cl)c(C(F)(F)F)c1)c1ccc(S(=O)(=O)N2CCCCC2)cn1
(17) Cc1nc2ccc(CN(C)c3ccc(C(=O)N[C@@H](CCC(=O)O)C(=O)O)s3)cc2c(=O)[nH]1
(18) Cc1cc(C)n(-c2ccc(C(=O)Oc3ccc4oc5c(c4c3)CCCC5)cc2)n1
(19) O=C1Nc2ccccc2SC1CC(=O)N1CCN(c2ccc(C(F)(F)F)cn2)CC1 (configuration not stated)
(20) CCOC(=O)c1sc(N)c(C#N)c1COC(=O)C1CC(=O)N(c2ccccc2OC)C1 (configuration not stated)
compound no.,11,12,13,14,15,16,17,18,19,20
BmaI1,10,13,12,14,14,8,0,9,17,1
BmaI1 counterscreen,1,10,0,16,4,2,-4,4,10,4

(21) O=C(CSc1ccc(F)cc1)NC(=O)C1CCCCC1
(22) CC1(C)C2CC=C(/C=N/NC(N)=O)C1C2 (configuration not stated)
(23) Cn1c(N)c(C(=O)CSc2nc3sc4c(c3c(=O)n2Cc2ccco2)CCCC4)c(=O)[nH]c1=O
(24) O=C(Cc1cccc(C(F)(F)F)c1)NNc1c(F)c(F)cc(F)c1F
(25) COc1cc(Br)c(CSc2n[nH]c(=O)n2C2CC2)cc1OC
(26) Cc1ccc2nc(SCCCC#N)[nH]c2c1
(27) Cc1ccc(OCCOn2nnc3ccc(S(=O)(=O)N(C)C)cc32)cc1
(28) N#Cc1cccc(COC(=O)c2ccccc2-n2cnnn2)c1
(29) CC1CN(C(=O)Nc2cccc(C(F)(F)F)c2)CC(C)O1 (configuration not stated)
(30) NC(=O)COC(=O)CC12CC3CC(CC(C3)C1)C2
compound no.,21,22,23,24,25,26,27,28,29,30
BmaI1,14,2,12,-5,20,8,17,7,15,16
BmaI1 counterscreen,9,-1,5,-11,13,6,10,10,4,8

(31) Cc1[nH]n(-c2ccccc2)c(=O)c1/C=N/NC(C)(C)C
(32) O=C1CCCN1C(=O)CSc1nnc2sc3ccccc3n12
(33) CCC(C)C(NS(=O)(=O)c1ccc(Cl)c(C(=O)O)c1)C(=O)O (configuration not stated)
(34) O=C(/C=C/C(=O)N1CCOCC1)NC1CCCc2ccccc21 (configuration not stated)
(35) CCN(CC)S(=O)(=O)c1ccc(N=Nc2c(O)c3ccccc3oc2=O)cc1
(36) Cc1cc(OCC(=O)Oc2ccc(-c3nnco3)cc2)ccc1C(C)C
(37) COc1ccc(OCCCC(=O)NNc2ccccc2)cc1
(38) CCn1c(-c2ccc(OC)cc2)csc1=Nc1ccc(C(=O)O)cc1
(39) Cc1cccc(C)c1NC(=O)CCCN1C(=O)NC2(CCCC2)C1=O
(40) CC1CCN(C(=O)CSc2n[nH]c(-c3ccccc3)n2)CC1
compound no.,31,32,33,34,35,36,37,38,39,40
BmaI1,45,2,16,8,18,36,84,18,18,4
BmaI1 counterscreen,52,0,13,3,16,14,63,4,12,3

(41) Cc1nn(-c2ccccc2)c(-c2ccc(O)cc2O)c1-c1ccccn1
(42) CC(C)N(CC(N)=O)C(=O)c1ccc(F)c(S(=O)(=O)N2CCCCC2)c1
(43) N#Cc1ccc(OC(=O)c2cccc(-n3cccc3)c2)cc1
(44) CS(=O)(=O)c1ccc(Cl)c(NC(=O)c2ccc(C#N)cc2)c1
(45) COC(=O)CC1C(=O)NCCN1c1ncnc2sccc12 (configuration not stated)
(46) CC1CN(CC(=O)NC(=O)NCc2ccco2)CC(C)O1 (configuration not stated)
(47) Cc1ccc2nc(CN3CCN(C/C=C/c4ccccc4)CC3)cn2c1
(48) COc1cc(CN(C)C(=O)c2cc(C)on2)ccc1OCc1ccccc1
(49) CN(Cc1ccc(C#N)cc1)S(=O)(=O)/C=C/c1ccccc1
(50) Cc1ccc(Cn2nc(C)c(/C=N/NC(=O)c3ccc4c(c3)OCO4)c2C)cc1
compound no.,41,42,43,44,45,46,47,48,49,50
BmaI1,-2,-12,0,4,17,6,8,21,8,5
BmaI1 counterscreen,-2,-9,0,6,8,0,5,8,2,-2

(51) CC(Sc1nnnn1-c1ccccc1)C(=O)NC1CCCC1 (configuration not stated)
(52) CO[C@H]1/C=C/O[C@@]2(C)Oc3c(C)c(O)c4c(O)c(c5c(c4c3C2=O)NC2(CCN(CC(C)C)CC2)N=5)=NC(=O)/C(C)=C\C=C\[C@H](C)[C@H](O)[C@@H](C)[C@@H](O)[C@@H](C)[C@H](OC(C)=O)[C@@H]1C
(53) COC(=O)c1ccc(C(c2c(O)ccc3ccccc23)N2CCOCC2)cc1 (configuration not stated)
(54) O=C(CSc1nnc(-c2ccc(Cl)cc2)n1CC1CCCO1)Nc1ccc2c(c1)OCCO2 (configuration not stated)
(55) CCn1c(SCC(=O)Nc2c(Cl)cc(S(N)(=O)=O)cc2Cl)nc2ccccc21
(56) Cn1c2ccccc2c2cc(C(=O)N/N=C/c3ccc(-c4ccc(S(N)(=O)=O)cc4)o3)sc21
(57) COC(=O)C1=C(C)Nc2c(c(=O)n(C)c(=O)n2C)C1c1ccc(C)cc1 (configuration not stated)
(58) CC(=O)Nc1ccc(S(=O)(=O)NCCC(=O)Nc2ccc3c(c2)OC2(CCCC2)O3)cc1
(59) CN1CCN(c2nc(-c3cc4ccccc4o3)cs2)CC1
(60) c1ccc(-c2cc3c(NC4CC4)ncnc3s2)cc1
compound no.,51,52,53,54,55,56,57,58,59,60
BmaI1,20,-16,18,12,17,8,-100,8,12,22
BmaI1 counterscreen,1,-25,11,4,7,11,-65,4,8,10

(61) COc1ccc(OCCOC(=O)c2cccc(C#N)c2)cc1
(62) Cc1cc(=O)[nH]c(NNC(=S)Nc2ccc(S(=O)(=O)N3CCOCC3)cc2)n1
(63) CCSc1nnc(NC(=O)c2ccc(C)c(S(=O)(=O)N(CC)CC)c2)s1
(64) Cc1n[nH]c(C)c1N=Nc1ccc(Br)cc1
(65) c1ccc2sc(C3CCCCN3)nc2c1 (configuration not stated)
(66) CC(C)(C)C(=O)c1sc2c(c1N)c(=O)[nH]c(=O)n2CC1CCCO1 (configuration not stated)
(67) C[C@]12CCC(=O)C=C1CC[C@@H]1[C@@H]2[C@@H](O)C[C@@]2(C)[C@H]1CC[C@]2(O)C(=O)COC(=O)CCC(=O)O
(68) O=C(CSCCCc1ccccc1)NC1CCS(=O)(=O)C1 (configuration not stated)
(69) CC(C)(C)P(=NC(=O)COc1ccccc1)(N1CCCCC1)N1CCCCC1
(70) O=C(Cc1cccc(F)c1)N1CCN(S(=O)(=O)c2ccc3c(c2)OCCO3)CC1
compound no.,61,62,63,64,65,66,67,68,69,70
BmaI1,14,72,4,30,18,28,-6,2,-4,14
BmaI1 counterscreen,21,10,6,16,8,-6,-2,8,-8,4

(71) N#Cc1c(/N=C/c2c(O)[nH]c(=O)[nH]c2=O)sc2c1CCC2
(72) COc1ccc(NC(=O)[C@@H](NC(=O)c2ccc(C)cc2)C(C)C)cc1OC
(73) O=C(O)CC1(CC(=O)Nc2ccc(Br)cc2)CCCC1
(74) O=S1(=O)CCC(Cc2nc3ccccc3[nH]2)C1 (configuration not stated)
(75) O=C(/C=C/c1c(Cl)nc2ccccn12)N1CCCCC1
(76) Nc1cc(C(F)(F)F)c[nH]c1=O
(77) Cc1nn(-c2cccc(C(F)(F)F)c2)c2sc(C(=O)NC3=NCCS3)cc12
(78) Nc1cc(Cl)ccc1C(=O)OC1CCOC1=O (configuration not stated)
(79) COc1cccc(NCc2nnc(SCc3nc4ccccc4o3)n2C2CCCCC2)c1
(80) CCCCNC(=O)c1ccc(C#N)cc1
compound no.,71,72,73,74,75,76,77,78,79,80
BmaI1,70,14,28,20,28,19,4,8,24,-8
BmaI1 counterscreen,22,0,18,19,14,46,-6,8,0,10

(81) Cc1cc(C)c(C#N)c(SCC(=O)N2c3ccccc3NC(=O)C2(C)C)n1
(82) CCCNC(=O)COc1ccc2ccc(=O)oc2c1
(83) CC1CC(C)CN(S(=O)(=O)c2cccc(C(=O)OCCN3CCCC3=O)c2)C1 (configuration not stated)
(84) CN(Cc1nc2ccccc2c(=O)[nH]1)C(C(=O)NC(N)=O)c1ccccc1 (configuration not stated)
(85) CN(C)S(=O)(=O)c1cccc(CSc2ncnc3c2cnn3-c2ccccc2)c1
(86) CCn1c(SC(C)C(=O)NC(N)=O)nnc1-c1ccccc1 (configuration not stated)
(87) O=C(COc1cc(Cl)ccc1Cl)Nc1cccc2nsnc12
(88) O=S(=O)(c1ccc(NC2CN3CCC2CC3)nc1)N1CCCC1 (configuration not stated)
(89) O=C(O)CC1C(=O)N2CCNC2=C1C(=O)c1ccccc1 (configuration not stated)
(90) CCOC(=O)c1c(-c2cccs2)csc1NC(=O)COC(=O)c1ccc(-n2cnnn2)cc1
compound no.,81,82,83,84,85,86,87,88,89,90
BmaI1,10,0,6,14,16,2,15,14,-2,12
BmaI1 counterscreen,4,-7,-2,-1,6,6,13,10,2,-1

(91) CCCn1nc(C(=O)OCc2cccc(S(=O)(=O)N(C)C)c2)c2ccccc2c1=O
(92) CC1CC(C)CN(C(=O)c2cc3ccccc3oc2=O)C1 (configuration not stated)
(93) COc1ccc2c(CC(=O)OC(C)C(N)=O)coc2c1 (configuration not stated)
(94) C[C@H](N=C1NS(=O)(=O)c2ccccc21)C(=O)OCc1cn2ccccc2n1
(95) Cc1ccc(S(=O)(=O)N2CCN(C(=O)c3ccc(OCc4c(C)noc4C)cc3)CC2)cc1
(96) CCOc1ccc(C(=O)C(C)OC(=O)c2cccc(-n3cnnn3)c2)cc1 (configuration not stated)
compound no.,91,92,93,94,95,96
BmaI1,5,8,12,20,-8,18
BmaI1 counterscreen,0,9,13,10,-10,12

Bioassay records deposited in PubChem BioAssay by ICCB-Longwood Screening Facility, Harvard Medical School.
